Screening results deposited in PubChem by National Center for Advancing Translational Sciences (NCATS).
VACV mCherry inh: vaccinia inhibition (mCherry reporter). Vaccinia virus mCherry reporter infection, fluorescence; about a quarter of the inactives have no number. Potency, µM (highest dose often 36.5 µM), for the others: at the top dose activity change, negative = inhibition, most hits filed as inhibitors. hit rate 0.63% among 310,000; active = well fitted inhibition curve with a large enough effect; inconclusive = small, poorly fitted or top-dose-only effect; inactive = no such curve, though single readings can be large or run the other way; tested in A549 cells; note: nearly all actives have a fitted effect of over 35% in size; inactives centre near -10
Vaccinia Venus: inhibitors of vaccinia virus (Venus reporter); Vaccinia virus Venus reporter expression, fluorescence; hit rate 0.46% among 330,000; Potency, µM (doses to about 36.5 µM), without a hit: at the top dose activity change, negative = inhibition, usual class: inhibitors; active means well fitted inhibition curve with a large enough effect; inconclusive means small, poorly fitted or top-dose-only effect; inactive means no such curve, though single readings can be large or run the other way; tested in A549 cells; note: nearly all actives have a fitted effect of over 30% in size; inactives centre near -10
Numbers without * were called inactive; i = inactive; u = inconclusive; x = no result given; & = joins results of further samples; [ ] = another dose, or the depositor's remark. % is set by controls: 0 for no effect and ±100 for the full control effect; potency is the fitted concentration of half-maximal effect. Rows were taken by chance; 0.86% or so of the library scored in one or more.

SMILES	VACV mCherry inh	Vaccinia Venus
Cn1c(=O)c2c(-c3ccccc3)n(-c3ccccc3)cc2n(C)c1=O	-15%	-14%
COc1ccc(OC)c(NC(=O)CC2(CC(=O)O)CCCC2)c1	-21%	-3%
CCCN(CCC)CC(O)CN1C(=O)NC(C)(C)C1=O (configuration not stated)	2%	-2%
N#CC(C#N)=NNc1ccc2cn[nH]c2c1	-2%	-3%
COc1ccc(O)c(/C=N/n2c(-c3ccco3)csc2=Nc2cccnc2)c1	-27%	-15%
COC(=O)CNC(=O)c1ccc2c(c1)S(=O)(=O)c1ccccc1C2=O	x	-4%
CCOC(=O)c1c2n(c3ccc(O)cc13)CCC2	i	-25%
CC(=O)NCCNC(=O)C1(C)Cc2c(-c3ccc(C(N)=O)cc3)ccnc2O1 (configuration not stated)	32%[activator]	-1%
COc1ccc(N2CCN(C(=O)COCc3cc(-c4ccc5c(c4)OCO5)on3)CC2)cc1	-17%	-21%&-19%
Cc1ccc(Cl)cc1NC(=O)CSc1nc2ccccc2c2nc(-c3ccccc3)nn12	-8%	3%
Cc1cccc(NC(=O)CSc2nnc(-c3cc(C)n(-c4ccccc4)c3C)o2)c1C	-3%	6%
CCn1c2ccccc2c2cc(NC(=O)COC(=O)c3cccc(S(=O)(=O)NC)c3)ccc21	u	u
Cc1ccc(S(=O)(=O)N2[C@@H](c3ccc(F)cc3)C(C(=O)O)=C[C@H]2CC2CCCC2)cc1	-12%	-7%
N#C/C(=C(/O)CN1CCCC1)c1nc(-c2ccccc2)cs1	-21%	-1%
CC(C)(C)Nc1nc(NC(C)(C)C)nc(-n2ccnc2)n1	-26%	-26%
CCc1ccc(-c2cc(C(=O)N/N=C/c3c[nH]c4ccccc34)[nH]n2)cc1	u	-19%
CCOC(=O)c1c(C)oc2ncnc(N3CCN(c4ccccc4F)CC3)c12	-8%	2%
CC(C(=O)N1CCc2ccccc21)N1CCN(S(=O)(=O)c2ccc(C(F)(F)F)cc2)CC1 (configuration not stated)	-28%	-20%
c1ccc2[nH]c(CN3CCN(c4ncnc5c4oc4ccccc45)CC3)nc2c1	-28%	-24%
Cn1c(=O)c2[nH]c(-c3ccccc3Cl)c(O)c2n(C)c1=O	i	-17%
N#CCc1ccc(NS(=O)(=O)c2ccc(C3CCCCC3)cc2)cc1	i	-16%
COCO/C=C(\NC(C)=O)c1ccccc1	i	-2%
Cc1ccc(CNC(=O)Cn2ncc3c([nH]c4ccc(C)cc43)c2=O)cc1	-11%	-9%
C=C1CCC[C@]2(C)C[C@H]3OC(=O)C(CN[C@@H](C)c4ccccc4)[C@H]3CC12 (some centres not stated)	u	u
CCC(=O)c1ccc(OCC(=O)NNC(=O)c2cc(C)oc2C)cc1	-6%	-1%
COc1ccc(CCNC(=O)Cc2ccc(NC3=NC4CS(=O)(=O)CC4S3)cc2)c(OC)c1 (configuration not stated)	-13%	-2%
COc1ccc(OC)c(S(=O)(=O)N2CCc3ccccc32)c1	i	-21%
Cc1nc(NS(=O)(=O)c2ccccc2)sc1C(=O)NN	-9%	-7%
COc1ccc(C(=O)NCCCNC(=O)c2ccc(C)nc2)cc1	i	-2%
CCOc1ccc(NC(=O)Cn2c(=O)n(CCCC(=O)NCCc3ccc(Cl)cc3)c(=O)c3ccccc32)cc1	u	u
CCCCn1c(N)c(N(CCC(C)C)C(=O)c2c(C)noc2C)c(=O)[nH]c1=O	-16%	-1%
CSc1ccc(/C=C/c2nc3ccccc3c(=O)n2-c2cccc(Cl)c2C)cc1	-19%	-11%
COc1ccc2c(CC(=O)Nc3nccs3)coc2c1	-5%	2%
Fc1cccc(Cc2c(-c3ccccc3)nc3ccc(Br)cn23)c1	3%	0%
O=C(NCCS(=O)(=O)N1CCN(Cc2ccccc2)CC1)c1ccc(F)cc1	-22%	-3%
O=C1NC[C@@H](Cc2ccc(O)cc2)N(CCCCC2CCCCC2)C1=O	-9%	-10%
CC(=O)OCC1=C(C(=O)O)N2C(=O)C(NC(=O)CCn3nc(C)c(Cl)c3C)C2SC1 (configuration not stated)	-2%	4%
CCOC(=O)C1=CCN(S(=O)(=O)c2ccc(C)cc2)C1c1cccc(Br)c1 (configuration not stated)	i	-8%
COc1cc(Cc2ccc(N)c(OC)c2)ccc1N	i	-16%
N#Cc1ccc(C(=O)OCC(=O)N2CCOCC2)cc1	i	-3%

Shown with each value named: 2 of the compounds above
> CCOC(=O)C1=CCN(S(=O)(=O)c2ccc(C)cc2)C1c1cccc(Br)c1 (configuration not stated)
  VACV mCherry inh: i; Vaccinia Venus: -8%

> COc1cc(Cc2ccc(N)c(OC)c2)ccc1N
  VACV mCherry inh: i; Vaccinia Venus: -16%

The list continues:
SMILES	VACV mCherry inh	Vaccinia Venus
NS(=O)(=O)c1cccc(NC(=O)CCSc2ccc(Cl)cc2)c1	-2%	2%
Cn1c(CN2CCCCC2)nc2cc([N+](=O)[O-])ccc21	-7%	1%
CO/N=C(/COc1ccc(F)cc1)c1ccc(OC)cc1	-15%	1%
O=C(Nc1cccc(-c2nc3ccccc3s2)c1)c1ccc2c(c1)OCO2	0%	-21%
Cc1nnc(SCc2nnc(-c3cccs3)o2)s1	-1%	-16%
CCOC(=O)C(C)Sc1nnc2ccc3ccccc3n12 (configuration not stated)	-4%	-2%
COc1ccc(S(=O)(=O)N2CCCC(C(=O)NCc3cccnc3)C2)cc1 (configuration not stated)	-9%	-7%
COc1ccccc1NC(=O)COc1ccc2ccccc2c1	i	u
Cc1ccc(Cl)cc1N1CCN(C(=O)c2ccc3nc[nH]c3c2)CC1	-20%	-9%
Cc1cc2cc(C)c(NCCNC(=O)c3ccccc3F)nc2cc1C	i	5%
CCOCCCNC(=S)Nc1cc(C)cc(C)c1	i	4%
O=C1OCCN1S(=O)(=O)Nc1ccccc1	i	-10%
CC(=O)OCC1OC(OCc2cn(C[C@H]3CC[C@@H]([C@@H]4CC[C@H](Cn5cc(COC6OC(COC(C)=O)C(OC(C)=O)C(OC(C)=O)C6OC(C)=O)nn5)O4)O3)nn2)C(OC(C)=O)C(OC(C)=O)C1OC(C)=O (some centres not stated)	-18%	-19%
Cc1ccc(NC(=O)c2ccc(Br)o2)c([N+](=O)[O-])c1	i	-2%
O=C(NNC(=O)c1ccco1)c1cccc(Br)c1	-10%	-1%
CCN(C[C@H]1N[C@@](CC)(C(=O)OC)[C@H]2C(=O)N(Cc3ccccc3)C(=O)[C@@H]12)S(=O)(=O)c1ccc(C(F)(F)F)cc1	u	-11%
COc1ccc(C(=O)NCCS(=O)(=O)NCc2ccccc2OC)cc1	i	-8%
CCOC(=O)NC(Nc1sc2c(c1C(=O)OC)CCN(C)C2)(C(F)(F)F)C(F)(F)F	x	-4%
Nc1[nH]c(=O)ncc1F	-7%	-14%
O=C(COc1ccccc1[N+](=O)[O-])N1CCN(C(=O)c2ccco2)CC1	-10%	0%
NC(=O)c1cnccn1	-5%	-10%&-8%
O=C(CNC(=O)c1ccc(Br)o1)NNC(=O)c1cccc(Cl)c1	-21%	-9%
CCOC(=O)c1ccccc1Nc1nc2ccc(C)cc2n2nnnc12	-7%	-2%
COc1cc(-c2coc3cc(O[C@H]4OC(CO)C(O)C(O)C4O)c(OC)c(O)c3c2=O)cc(O)c1OC (some centres not stated)	-1%	u
CN(C(=O)c1cncc(Br)c1)c1c(N)n(Cc2ccccc2)c(=O)[nH]c1=O	-25%	-4%
CC(=NCCc1c(C)[nH]c2ccc(OCc3ccccc3)cc12)C1=C(O)CC(c2ccccc2)CC1=O (configuration not stated)	-24%	-13%
O=C(NNS(=O)(=O)c1ccc(F)cc1)c1ccc([N+](=O)[O-])cc1Cl	-11%	12%
NC(=O)CSC1=Nc2ccccc2C2=NC(c3ccccc3)C(=O)N12 (configuration not stated)	i	2%
CCOc1cccc(-c2nnc3sc(COc4ccc(C)cc4)nn23)c1	x	-10%
CCOc1ccc(NC(=O)Cc2c(C(=O)O)n(C)c3ccccc23)cc1	i	-15%
COc1ccccc1-c1sc2cc3c(cc2c1-c1ccc2c(c1)OCO2)OCO3	-9%	-16%
Cc1ccnn1CC(=O)N/N=C/c1cccs1	-6%	-7%
O=C(CNC(=O)c1ccc(Cl)cc1Cl)NCc1ccccn1	-13%	-6%
CCc1c(C2(O)CCCCC2)[nH]c2c(C(=O)OC)cc(Cl)cc12	i	-21%
CCCCn1nnc(NC(=O)c2cc3ccccc3o2)n1	x	-22%
CC(=O)NC(CCS(C)(=O)=O)C(=O)Nc1nccs1 (configuration not stated)	-14%	-1%
CCOc1ccc(NC(=O)CSc2oc(-c3ccc(C)cc3)nc2S(=O)(=O)c2ccc(C)cc2)cc1	u	u
CC(C)[C@H](NC(N)=O)C(=O)Nc1ccc2c(c1)CCC2	i	-7%
CC(=O)N1c2ccc(S(=O)(=O)NCCC(=O)Nc3ccccc3C)cc2CC1C (configuration not stated)	-7%[7.34 µM]	0%[7.34 µM]
CCOC(=O)c1sc(S(C)(=O)=O)c2c1CCc1conc1-2	-4%	3%
COc1ccc(C2NC(=O)NC(O)(C(F)(F)F)C2C(=O)c2ccccc2)cc1OC (configuration not stated)	i	0%
COc1ccc(Cn2nnnc2C(c2cc3ccc(OC)cc3[nH]c2=O)N2CCCCCC2)cc1 (configuration not stated)	0%	-5%
CCc1nc2ccc(C(=O)N(C)Cc3ccccc3)cn2c1N(CC)CCN(C)C	6%	-3%
O=C(NCC(=O)N1CCN(Cc2c(F)cccc2Cl)CC1)c1cccs1	i	-14%
CSc1ccc(/C=N\NC(=O)CNc2ccc(C)cc2)cc1	-22%	-18%
CC(C)NC(=O)N(C)C[C@H]1Oc2ccc(NS(=O)(=O)c3cn(C)cn3)cc2C(=O)N([C@H](C)CO)C[C@@H]1C	i	-8%
O=C(NN=C1CCCCCC1)c1cccs1	-1%	-10%
CN(C)c1ccnc(-n2cccc2/C=N/OCc2cccc(F)c2)c1C#N	x	-12%
O=C(CCCC(=O)N(CC(=O)NC1CCCC1)Cc1ccccc1)Nc1ccccn1	x	3%
Cc1cc(C)c2c(CN3CCN(c4ccccc4F)CC3)cc(=O)oc2c1	i	-6%

Remaining list, next part.
SMILES	VACV mCherry inh	Vaccinia Venus
COC(=O)c1ccc(Oc2c(C(F)(F)F)oc3c(CN4CCN(C)CC4)c(O)ccc3c2=O)cc1	x	-11%
COC(=O)c1sccc1NC(=O)CN(C)NS(=O)(=O)c1ccc([N+](=O)[O-])cc1	-16%	-11%
COc1ccc(C(=O)N/N=c2\oc3ccccc3cc2C(N)=O)cc1	-13%	-15%
O=C(Nc1cccc(Cl)c1)Nc1ccccc1OCc1cc(=O)n2ccccc2n1	-6%	-20%
CCCN1CCN(CCCNC(=O)c2cc3c(s2)-c2ccccc2OC3)CC1	u	-23%
COc1ccc(/C=C/c2cc(-c3ccc(C)cc3)o[n+]2C)cc1	u	u
O=C(COC(=O)c1cccc(S(=O)(=O)N2CCCCCC2)c1)NCc1ccc(Cl)cc1	-7%	-8%
CN(C)/C(=N\S(=O)(=O)c1ccc(Br)cc1)c1ccccc1	i	-14%
COC(=O)C1=C(c2ccc(OCc3ccccc3)cc2)C[C@@H]2CC[C@H]1N2C(=O)NCc1ccc(C(C)(C)C)cc1	-29%	u
Cc1cc2c(c(-c3cnccn3)c1)OC(CNC(=O)c1cc(Cl)ccc1F)C2 (configuration not stated)	-14%	-14%
COc1cc(S(=O)(=O)n2ccnc2C(C)C)ccc1Br	-3%	-5%
CCOC(=O)/C=C1\NC(=O)CS1	i	-11%
O=C1CC(c2ccccc2)CC2=C1C=Nc1ccccc1N2 (configuration not stated)	-3%	-20%
COC(=O)c1ccc(NC(=O)CC2C(=O)N(c3cccc(C)c3)C(=O)N2C2CCCC2)cc1 (configuration not stated)	-5%	-4%
CSC1=N/C(=C/c2ccc(-n3cncn3)cc2)C(=O)N1	-4%	-18%

Of the compounds above, 12 have an NH in an aromatic ring:
SMILES	VACV mCherry inh	Vaccinia Venus
N#CC(C#N)=NNc1ccc2cn[nH]c2c1	-2%	-3%
CCc1ccc(-c2cc(C(=O)N/N=C/c3c[nH]c4ccccc34)[nH]n2)cc1	u	-19%
c1ccc2[nH]c(CN3CCN(c4ncnc5c4oc4ccccc45)CC3)nc2c1	-28%	-24%
Cn1c(=O)c2[nH]c(-c3ccccc3Cl)c(O)c2n(C)c1=O	i	-17%
Cc1ccc(CNC(=O)Cn2ncc3c([nH]c4ccc(C)cc43)c2=O)cc1	-11%	-9%
CCCCn1c(N)c(N(CCC(C)C)C(=O)c2c(C)noc2C)c(=O)[nH]c1=O	-16%	-1%
Cc1ccc(Cl)cc1N1CCN(C(=O)c2ccc3nc[nH]c3c2)CC1	-20%	-9%
Nc1[nH]c(=O)ncc1F	-7%	-14%
CN(C(=O)c1cncc(Br)c1)c1c(N)n(Cc2ccccc2)c(=O)[nH]c1=O	-25%	-4%
CC(=NCCc1c(C)[nH]c2ccc(OCc3ccccc3)cc12)C1=C(O)CC(c2ccccc2)CC1=O (configuration not stated)	-24%	-13%
CCc1c(C2(O)CCCCC2)[nH]c2c(C(=O)OC)cc(Cl)cc12	i	-21%
COc1ccc(Cn2nnnc2C(c2cc3ccc(OC)cc3[nH]c2=O)N2CCCCCC2)cc1 (configuration not stated)	0%	-5%
